NPYLR7 agonist: activates Aedes aegypti NPYLR7 receptor; HEK293T NPYLR7/Galpha15, GCaMP6s calcium fluorescence; activation, % at 10 µM; 0.15% of 270,000 active; AID 1259423; in the data active means activation above about 40%;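 further: 0% = vehicle and 100% = reference agonist at the receptor; some compounds past the cut are filed as inactive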
NPYLR7 agonist max-min: second read-out of NPYLR7 agonist, no call of its own (marks repeat the call); activation, %; measured here: Max-Min RFU normalised activation; some inactives read as strong as hits;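 span of the calcium signal over five minutes; 0% = vehicle and 100% = native peptide agonist; compound fluorescence can raise it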
* = called active by the depositor; & = joins results of further samples. Some of the compounds tested; rates above refer to the full screens.

The first 7 entries (preview)
SMILES	NPYLR7 agonist	NPYLR7 agonist max-min
O=C(CCn1ccccc1=O)N1CC[C@@H](c2ccc3ccccc3c2)[C@H](O)C1	-4	-5
COc1ccc(CCN(Cc2cccs2)C(=O)CN(CC2CCCO2)S(=O)(=O)c2ccc(Cl)cc2)cc1OC (centres undefined)	7	11
CCOC(=O)CCC(=O)N1CCN(C(=O)c2cc(-c3ccc(F)cc3)n(-c3ccccc3)c2C)CC1	-2	9
COC(=O)Cn1c(=NC(=O)c2cc(Cl)sc2Cl)sc2cc(S(N)(=O)=O)ccc21	7	5
COc1cccc(OC)c1OCCN1CCC(C(=O)NC(c2ccccc2)c2ncccc2C)CC1 (centres undefined)	-4	-5
CCCCOc1ccc(C(=O)N(CCC)Cc2c(CC)nn(-c3ccc(F)cc3)c2N2CCN(C(C)C)CC2)cc1	14	21
O=C(c1ccc(CSc2nnc(-c3ccco3)n2-c2cccc(Cl)c2)cc1)N1CCN(c2ccccc2F)CC1	4	8

The listing, repeating the preview:
SMILES	NPYLR7 agonist	NPYLR7 agonist max-min
O=C(CCn1ccccc1=O)N1CC[C@@H](c2ccc3ccccc3c2)[C@H](O)C1	-4	-5
COc1ccc(CCN(Cc2cccs2)C(=O)CN(CC2CCCO2)S(=O)(=O)c2ccc(Cl)cc2)cc1OC (centres undefined)	7	11
CCOC(=O)CCC(=O)N1CCN(C(=O)c2cc(-c3ccc(F)cc3)n(-c3ccccc3)c2C)CC1	-2	9
COC(=O)Cn1c(=NC(=O)c2cc(Cl)sc2Cl)sc2cc(S(N)(=O)=O)ccc21	7	5
COc1cccc(OC)c1OCCN1CCC(C(=O)NC(c2ccccc2)c2ncccc2C)CC1 (centres undefined)	-4	-5
CCCCOc1ccc(C(=O)N(CCC)Cc2c(CC)nn(-c3ccc(F)cc3)c2N2CCN(C(C)C)CC2)cc1	14	21
O=C(c1ccc(CSc2nnc(-c3ccco3)n2-c2cccc(Cl)c2)cc1)N1CCN(c2ccccc2F)CC1	4	8
COc1ccc(C(C[N+](=O)[O-])n2nc(C)cc2C)c(OC)c1 (centres undefined)	22	15
O=C(CN(C1CC1)S(=O)(=O)c1ccc(Br)cc1)N(CCc1c[nH]c2ccccc12)Cc1ccc(C(F)(F)F)cc1	-2	6
COc1cc(/C=C2/SC(=Nc3ccccc3)NC2=O)ccc1O	-3	-9
CCC(C)N(Cc1cccn1Cc1cccc(OC)c1)C(=O)CN(CCCOC)C(=O)c1cccc(F)c1 (centres undefined)	-9	-8
CNC(=O)c1c(NC(=O)c2ccccc2C)sc2c1CCCC2	6	5
CCC1=C(C(=O)OC)C(c2cccc(C)c2)N2C(CC(=O)N(C)C3CCN(C)CC3)=CSC2=N1 (centres undefined)	5	3
COc1ccc(C(=O)C=Cc2ccc(Br)cc2)c(OC)c1	0	1
CCOC(=O)C1CCN(C(=O)c2cn(Cc3cccc(C(F)(F)F)c3)nn2)CC1	19	11
COc1cccc(CC(C2CCN(C(=O)Cn3cnc4ccccc43)CC2)N(C)Cc2cccnc2)c1 (centres undefined)	16	8
CCn1cc(C(CC(=O)NCCCN2CCCCC2C)c2ccc(C)cc2)c2ccccc21 (centres undefined)	27	28
CN(C)C=Nc1ccc(S(N)(=O)=O)cc1	8	8
O=C(CSc1nnc(NC2CCCCC2)s1)NN1C(=O)NC2(CCCCC2)C1=O	12	16
COc1ccc(OC)c(-c2nnc3ccc(OCCNC(=O)Nc4ccccc4)nn23)c1	0	-1
COc1ccccc1NC(=O)CN1CCC(Cn2cnc3ccccc32)CC1	-2	-4
Cc1c(C)n2c3c(=O)n(C)c(=O)n(C)c3nc2n1CC(=O)OCc1ccccc1	0	1
Cn1nnc2c(Nc3ccc4c(c3)OCCO4)ncnc21	6	1
CCCC(C)c1nc(N2CCN(S(=O)(=O)c3ccc(C)cc3)CC2)c2cnn(-c3ccccc3)c2n1 (centres undefined)	2	5
CNC(=O)Cc1nc(COc2cccc(Cl)c2C#N)cs1	-20&-7	-20&-41
CC1CN(c2ccccc2)CCN1C(=O)CCN1CCCCCC1=O (centres undefined)	-3	-5
COc1ccc(/C=C2\N=C(c3ccc(OC)c([N+](=O)[O-])c3)OC2=O)cc1OC(C)=O	-3	-6
O=C(CCc1ccccc1)N(Cc1cccnc1)c1nc2c(F)cc(F)cc2s1	-7	0
CN(Cc1ccc(SC(F)F)cc1)C(=O)CNC(=O)C1CC1	14	6
CC(C)CCc1nc(N2CCN(C(=O)COc3ccc(Cl)cc3)CC2)c2cnn(-c3cccc(Cl)c3)c2n1	40	31

Looked up above.
NPYLR7 agonist with O=C(CCc1ccccc1)N(Cc1cccnc1)c1nc2c(F)cc(F)cc2s1 : -7
NPYLR7 agonist max-min with CC1CN(c2ccccc2)CCN1C(=O)CCN1CCCCCC1=O (centres undefined) : -5
NPYLR7 agonist with CNC(=O)Cc1nc(COc2cccc(Cl)c2C#N)cs1 : -20&-7
NPYLR7 agonist max-min with Cn1nnc2c(Nc3ccc4c(c3)OCCO4)ncnc21 : 1

Going on with the list.
SMILES	NPYLR7 agonist	NPYLR7 agonist max-min
CCc1cnc2c(c1OC)c(=O)n(CC(=O)NC)c(=O)n2C	4	2
CCCN(CC(=O)N(CCc1c[nH]c2ccccc12)Cc1ccc(C(F)(F)F)cc1)C(=O)COc1ccccc1	23	26
CN1CCN(C(CNC(=O)NCc2ccccc2)c2ccc(N(C)C)cc2)CC1 (centres undefined)	4	2
O=C(COCC(=O)Nc1nc(-c2cccs2)cs1)Nc1nc(-c2cccs2)cs1	-9	-14
CCOc1ccccc1NC(=O)NC(C)c1nnc(SCc2ccc(F)cc2)n1-c1ccc([N+](=O)[O-])cc1 (centres undefined)	-6	-5
CCc1nc2c(OCc3ccc4c(c3)OCO4)cccn2c1N(C)C(=O)c1cccs1	14	-1
CCOC(=O)NCCC(=O)NCC(c1ccc(C)o1)N1CCCC1 (centres undefined)	6	5
CCN(CC)c1nc(SC)ncc1CN[C@H](C)c1ccc(C)cc1	-1	-6
CCOc1ccc2nc(N3CCCC(C(=O)N(C)Cc4cn(C)nc4C)C3)nc(C)c2c1 (centres undefined)	20	5
CN(Cc1cccc(N2CCN(S(=O)(=O)c3ccccc3C(F)(F)F)CC2)c1F)S(C)(=O)=O	2	10
O=C1CCc2cc(S(=O)(=O)NCc3ccccc3OC(F)F)c(F)cc2N1	-1	-1
COc1cccc(C(=O)N2CCN(c3cc(Cl)nc(SCC(=O)NC4CC4)n3)CC2C)c1 (centres undefined)	-2	-10
CC(Nc1ccc(S(=O)(=O)N2CCCC2)cn1)C1CC2CCC1C2 (centres undefined)	19	21
CC(C)n1cccc(C(O)CC(=O)c2ccccc2)c1=S (centres undefined)	-5	-8
CCN(CC)C1CCN(C(=O)NCC2CCCO2)CC1 (centres undefined)	5	4
COc1ccc(CNC(=O)c2cnn3c(C(F)(F)F)cc(-c4ccc(F)cc4)nc23)cc1	-4	-4
CC(C)(C)CC(=O)C(C#N)C(=O)Nc1ccccc1Cl (centres undefined)	20	19
CC(NCc1ccccc1Cl)C(=O)Nc1ccc(C#N)cc1 (centres undefined)	0	0
CC1CN(S(=O)(=O)CCNC(=O)Nc2ccc(-n3cccn3)c(F)c2)CC(C)O1 (centres undefined)	13	13
C[C@]12C=CC(=O)C=C1CCC1C3C[C@@H](O)[C@](O)(C(=O)CO)[C@@]3(C)C[C@H](O)[C@@]12F (some centres undefined)	-9	-15
Cc1ccc(C2(c3noc(CN4CCN(c5nc6ccccc6o5)CC4)n3)CCCC2)cc1	4	-2
O=C(CCn1cnc2ccccc2c1=O)Nc1cccc(Br)c1	5	2
O=C(c1cccn2c(=O)c3sccc3nc12)N1CCOCC1	-2	-1
c1ccc(-c2noc(CN(CC3CCC3)CC3CCCO3)n2)nc1 (centres undefined)	21&-12	11&-13
CCOC(=O)CCCC(=O)N1CCC(c2nc(-c3ccccc3Cl)no2)CC1	20	8
CCCCOc1ccc(C2=N/C(=C\C(Br)=C\c3ccccc3)C(=O)O2)cc1	-2	-7
CCC(NC(=O)c1ccccc1-c1ncn[nH]1)c1cc(C)ccn1 (centres undefined)	18	8
Cc1cccc(S(=O)(=O)N2CCN(CCn3nc(-c4ccccc4)ccc3=O)CC2)c1	-7	0
CCn1ncc(C(=O)NCc2scnc2-c2ccccc2)c1C	7	4
CC(=O)N1N=C(c2ccccc2O)CC1c1cccs1 (centres undefined)	-3	-7
CCCCCCN1N=C(C)Cn2c1nc1c2c(=O)n(CCCCCC)c(=O)n1C	0	0
Cc1cc(C=NNc2nc3ccccc3s2)c(C)n1-c1ccccc1	-3	-7
COc1ccc(N=Cc2cc([N+](=O)[O-])ccc2OC(F)F)cc1	3	4
O=C1C(=O)N(Cc2cccnc2)C(c2ccncc2)C1=C(O)c1ccc(Cl)cc1 (centres undefined)	5	5
CC(C)(O)CSc1nc2ccccc2c(=O)n1Cc1ccco1	6	1
CC(C)CC(NCc1cn[nH]c1-c1ccc(F)cc1)c1ncnn1C (centres undefined)	-6	-10
Cc1ccc(NC(=O)N(CCN2CCOCC2)CC(=O)N2CCc3sccc3C2COc2ccc(F)cc2)cc1 (centres undefined)	-1	2
CCCN1C(=O)C(C)(C)COc2cc(NS(=O)(=O)c3cc(C)c(OC)c(C)c3)ccc21	14	6
CCN(CC)Cc1cnc2c(C(=O)N3CCC(Cn4cccn4)CC3)cnn2c1	2	1
COc1ccc(Cc2nnc(SCC(=O)Nc3cccc(C)c3)[nH]c2=O)cc1	-8	-9
CC1=NN(c2cccc(Cl)c2)C(=O)/C1=C\c1ccco1	-12	-25
O=C(NC1CCN(c2ccccc2C(=O)NCc2ccncc2)CC1)c1cccc(Br)c1	20	11
CCOCCOC(=O)C1=C(C)NC(=O)NC1c1ccccc1OCC (centres undefined)	-5	-3
O=C(Nc1cccc(Cl)c1)Nc1scc2c1c(=O)oc1ccccc12	-7	-5
O=c1cc(CN2CCCCCC2)nc2sc3c(n12)CCCC3	-2	2
CCCCC(=O)N1CCN(c2ncnc3c2nnn3-c2ccccc2)CC1	-18	-26
Cc1ccc(-c2noc(CSc3nc4cc5c(cc4c(=O)n3Cc3ccco3)OCO5)n2)cc1	-8	-10
CCc1nc2ccc(C(=O)NCCCn3ccnc3)cn2c1N(CC)Cc1ccc2c(c1)OCCO2	18	17
COCc1[nH]n(-c2ccc(Cl)c(Cl)c2)c(=O)c1C1=C(N2CCOCC2)C(=O)N(C2CCCCC2)C1=O	4	4
CCOC(=O)C1(CCc2ccccc2)CCN(C(=O)CN2C(=O)CSC2=O)CC1	11	13
Following part.
SMILES	NPYLR7 agonist	NPYLR7 agonist max-min
Cc1cc(C)c2oc(-c3ccc(NC(=O)c4cc([N+](=O)[O-])ccc4Cl)cc3)nc2c1	-5	-10
COc1nc(-c2ccc(F)cc2)n(-c2cccc(NC(=O)c3ccc([N+](=O)[O-])cc3)c2)n1	5	14
Cc1cccc(C(=O)N2CCC(C(NC(=O)c3cccs3)C(=O)N3CCCCC3C)CC2)c1 (centres undefined)	-7	-6
CC1CCCC(C)N1C(=O)c1ccc(C(=O)N2C(C)CCCC2C)nc1 (centres undefined)	3	7
CCCOCCNc1nc(-c2ccc(OC)cc2)ncc1C(=O)OCC	27	27
COc1cccc(CNC(=O)CCC2CCCN(C(=O)c3ccc(OC)o3)C2)c1 (centres undefined)	-5	-1
CCCn1cnnc1CN(C)C(=O)c1ccoc1C	1	-6
CCOC(=O)CNC(c1ccccc1)c1cc(Br)ccc1NC(=O)c1ccccc1 (centres undefined)	0	-1
CC1(C)SC(c2ccncc2)N[C@H]1C(=O)O (some centres undefined)	-8	-9
N=C1/C(=C/c2ccc(OC(=O)c3ccc(Cl)cc3Cl)cc2)C(=O)N=C2SC=CN12	0	-1
COc1cccc(C(=O)Nc2cccc(-n3nc(OCC(C)C)nc3-c3ccco3)c2)c1	23	37
CCc1cccc(NC(=O)N(CCOC)Cc2ccc(OS(=O)(=O)c3cccc(C(F)(F)F)c3)cc2)c1	-1	-10
O=c1ccn([C@@H]2O[C@H](COP(=O)(O)OP(=O)(O)O)[C@@H](O)[C@H]2O)c(=O)[nH]1	-1	7
CCOC(=O)c1cc(-c2ccc(N3CCN(C(=O)c4cc(C)oc4C)CC3)cc2)n(-c2ccc(OC)cc2)n1	6	2
Cc1ccc(CN2CCN(C3CCCC3)C(CCO)C2)o1 (centres undefined)	17	5
Cc1nc2ccc(Nc3nccc(C(F)(F)F)n3)cc2s1	-3	-1
O=C(Nc1ccccc1)C1CCCN1C(=O)NCc1ccccc1 (centres undefined)	1	1
O=C(CN1Cc2ccc(Nc3cccc(F)c3)nc2C1=O)NCCCn1ccnc1	6	1
CCOC(=O)CSCC(=O)Nc1ccc(S(=O)(=O)N2CCOCC2)cc1OC	-3	-8
O=S(=O)(NCc1ccco1)c1cccc2nonc12	5	4
CC1(C)CC(=NNC(=O)CCc2cc(C(C)(C)C)c(O)c(C(C)(C)C)c2)CC(C)(C)N1	-11	-16
Cc1ccc(S(=O)(=O)c2cn(C)c3cc(N4CCC(C)CC4)c(F)cc3c2=O)cc1	-11	-14
Cc1ccc(C(CN2CCOCC2)N2Cc3nc4ccccc4c(=O)n3CC2=O)cc1 (centres undefined)	0	1
O=C(c1ccc(S(=O)(=O)NCc2ccco2)cc1)N(Cc1ccc(F)cc1)C1CC1	2	3
Cc1sc2nc(CCc3ccccc3)nc(N3CCN(C(=O)c4ccc(-c5ccccc5)cc4)CC3)c2c1C	14	21
COc1cccc(Cc2nsc(Oc3cccc(C(=O)NCCc4ccc(Cl)cc4Cl)c3)n2)c1	9	12
CCC(=O)N1N=C(c2ccco2)CC1c1cn(-c2ccccc2)nc1-c1cccs1 (centres undefined)	6	10
CN1CCN(Cc2n[nH]c(=O)n2CC2CCCCC2)CC1	26	19
Cc1cccc(C)c1OCCn1ccnc1-c1cnccn1	4	-6
Cc1c(C(=O)N2Cc3cnc(CC(C)C)nc3C2)cnn1-c1ccccn1	1	-3
COc1ccc(OC)c(-c2cnc(-c3cccc(CNC(=O)c4cc(Cl)ccc4F)c3)[nH]2)c1	-5	-6

Complete entries, looked up by structure. Order of screens: NPYLR7 agonist | NPYLR7 agonist max-min
CCOC(=O)CSCC(=O)Nc1ccc(S(=O)(=O)N2CCOCC2)cc1OC is entered as -3 | -8
CC1=NN(c2cccc(Cl)c2)C(=O)/C1=C\c1ccco1 is entered as -12 | -25

Screening results (PubChem BioAssay)
